Source: PubChem (National Center for Advancing Translational Sciences (NCATS))
SARS PLP yeast: qHTS of Yeast-based Assay for SARS-CoV PLP; S. cerevisiae expressing SARS-CoV PLpro, growth rescue; control for the full effect not named in the record; Potency, µM (doses to about 32.9 µM), inactives show top-dose activity, positive = growth rescue; 0.19% of 330,000 active; AID 485353, 2010; note: 0% is about no effect; nearly all actives have a fitted effect of over 55% in size; growth read by luminescence after 48 h
RE007 growth inh: qHTS Assay for Inhibitors of the HIV-1 protein Vpr. S. pombe RE007 Vpr strain, BacTiter-Glo ATP luminescence, 24 h; control for the full effect not named in the record. AID 651644, 2012. Potency, µM (series often up to 92.2 µM), without a hit: top-dose activity change, negative = less growth. 0.21% of 360,000 active; active = well fitted falling curve with a large enough effect; inconclusive = small, poorly fitted or top-dose-only effect; inactive = no such curve, though single readings can be large or run the other way;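 note: % is set by controls: 0 for no effect and ±100 for the full control effect; nearly all actives have a fitted effect of over 50% in size; the assay follows cell death caused by Vpr and the record does not say whether a fall means rescue or toxicity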
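Fission yeast RE007 carrying one integrated HIV-1 vpr copy, seeded at OD 0.01 in PMG+AL medium with 23 nL pinned compound. Grown 24 h at 30 degrees; viability read by BacTiter-Glo luminescence after 5 min.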
Cruzain inh noDet: qHTS Assay for Promiscuous and Specific Inhibitors of Cruzain (without detergent) | Cruzipain (Trypanosoma cruzi), P25779 | purified cruzain, Z-FR-AMC fluorescence, no detergent | Potency, µM, without a hit: max response, negative = inhibition, hits mostly inhibitors | 2.3% of 200,000 active; active = well fitted curve in the direction sought with a large enough effect; inconclusive = small, poorly fitted or top-dose-only effect, or another doubt; inactive = no such curve, though single readings can be large; an effect the other way counts as inactive or inconclusive;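 note: plate controls were enzyme without inhibitor for no effect and buffer without enzyme for full effect; nearly all actives have a fitted effect of over 40% in size; top concentration of the series not given in the record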
Target sequence (P25779 123-467 limits assumed): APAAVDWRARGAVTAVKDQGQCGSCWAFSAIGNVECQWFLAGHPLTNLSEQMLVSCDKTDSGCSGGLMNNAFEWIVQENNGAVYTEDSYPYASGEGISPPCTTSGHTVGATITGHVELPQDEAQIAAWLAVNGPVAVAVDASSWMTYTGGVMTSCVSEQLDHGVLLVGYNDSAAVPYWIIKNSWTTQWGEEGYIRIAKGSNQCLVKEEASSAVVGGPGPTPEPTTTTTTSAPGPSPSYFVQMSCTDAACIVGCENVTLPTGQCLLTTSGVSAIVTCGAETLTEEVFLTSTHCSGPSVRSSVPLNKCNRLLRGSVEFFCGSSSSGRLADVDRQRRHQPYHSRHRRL
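Detergent-free condition (0.00005% Triton X-100) in acetate buffer pH 5.5 with DTT. 1.5 nM enzyme and compound were pre-mixed 15 min, then 2 uM Z-FR-AMC substrate added; reaction progress from fluorescence change between first and third reads (60 s).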
MARV entry inh: qHTS for inhibitors of binding or entry into cells for Marburg Virus; Potency, µM (titrated, usually from 37.8 µM), for inactives: at the top dose activity change, negative = inhibition, actives largely listed as inhibitors; Marburg virus pseudotyped entry inhibition, cell reporter; control for the full effect not named in the record; about a third of the inactives were read at about 46 µM; 1.8% of 300,000 active; active = well fitted inhibition curve with a large enough effect; inconclusive = small, poorly fitted or top-dose-only effect, or effect the other way; inactive = flat fitted curve, though single readings scatter; tested in HEK293 cells; about a fifth of its hits are not listed in these tables; note: % is set by controls: 0 for no effect and ±100 for the full control effect; luciferase read-out
NS1 function inh: qHTS Assay for Inhibitors of Influenza NS1 Protein Function; S. cerevisiae slowed by influenza A NS1, growth recovery by OD600; 0.4% of 270,000 active; Potency, µM (doses to about 46.1 µM), for the others: at the highest dose activity, positive = more growth; note: actives are rising curves; nearly all actives have a fitted effect of over 50% in size
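In this qHTS, NS1 from influenza A is expressed in budding yeast, where it slows growth. Cells are switched from glucose to 2% galactose medium (pH 6.0, -URA), treated with compound, and growth recovery is read at OD600.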
Lassa entry inh: qHTS for Inhibitors of binding or entry into cells for Lassa Virus | Lassa virus pseudotype entry inhibition, cell reporter; control for the full effect not named in the record | 1.2% of 300,000 active | Potency, µM (doses to about 37.9 µM), without a hit: top-dose activity change, negative = inhibition, actives largely listed as inhibitors; active means well fitted inhibition curve with a large enough effect; inconclusive means small, poorly fitted or top-dose-only effect, or effect the other way; inactive means flat fitted curve, though single readings scatter; tested in HEK293 cells; note: % is set by controls: 0 for no effect and ±100 for the full control effect; nearly all actives have a fitted effect of over 50% in size; luciferase read-out
Cruzain Triton: qHTS Assay for Promiscuous and Specific Inhibitors of Cruzain (with detergent). purified cruzain, Z-FR-AMC fluorescence, 0.01% Triton. Potency, µM, without a hit: max response, negative = inhibition, hits mostly inhibitors. 0.43% of 200,000 active; active = well fitted curve in the direction sought with a large enough effect; inconclusive = small, poorly fitted or top-dose-only effect, or another doubt; inactive = no such curve, though single readings can be large; an effect the other way counts as inactive or inconclusive;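 note: plate controls were neutral wells for no effect and buffer without enzyme for full effect; nearly all actives have a fitted effect of over 40% in size; top concentration of the series not given in the record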
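Read-out: AMC fluorescence (360 nm excitation, 450 nm emission), four reads over 2 min, first-to-third difference used. Conditions: cruzain 1.5 nM, Z-FR-AMC 2 uM, pH 5.5 acetate, 5 mM DTT, 0.01% Triton X-100.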
StopGo reporter: High Throughput Screening for Foot and Mouth Disease Virus Antivirals. 1.2% of 410,000 active. human cells with a luciferase reporter of 2A StopGo recoding; control for the full effect not named in the record. Potency, µM (series often up to 57.9 µM), for inactives: at the top dose signal change, negative = less light; active = well fitted falling curve with a large enough effect; inconclusive = small, poorly fitted or top-dose-only effect; inactive = no such curve, though single readings can be large or run the other way; tested in HEK293T cells; note: % is set by controls: 0 for no effect and ±100 for the full control effect; nearly all actives have a fitted effect of over 45% in size; luciferase light after 4 h
Starred values were filed as active, the others as inactive; ? = inconclusive; . = no result given; & = joins results of further samples; [ ] = dose if it differs, or a comment. Unless noted, calls come from the whole dose curve; as a rule, active means well fitted rising curve with a large enough effect; inconclusive means small, poorly fitted or top-dose-only effect; inactive means no such curve, though single readings can be large or run the other way. Potency is the fitted concentration of half-maximal effect.

A first look, 2 compounds:
| smiles | SARS PLP yeast | RE007 growth inh | Cruzain inh noDet | MARV entry inh | NS1 function inh | Lassa entry inh | Cruzain Triton | StopGo reporter |
| --- | --- | --- | --- | --- | --- | --- | --- | --- |
| CC(NC(=O)c1ccc(S(=O)(=O)N(C)C)cc1)c1ccc(-n2ccnc2)cc1 (configuration not stated) | -13.8% | -1.2% | . | ? | 5.1% | -24.2%[46.1 µM] | . | -19.0% |
| COc1cccc(NC(=O)CSc2nncn2N)c1 | 2.3% | -9.6% | 14.3% | 29.1% | -3.0% | -2.4% | 6.8% | -2.4% |

All compounds of this part, from the first entry:
| smiles | SARS PLP yeast | RE007 growth inh | Cruzain inh noDet | MARV entry inh | NS1 function inh | Lassa entry inh | Cruzain Triton | StopGo reporter |
| --- | --- | --- | --- | --- | --- | --- | --- | --- |
| CC(NC(=O)c1ccc(S(=O)(=O)N(C)C)cc1)c1ccc(-n2ccnc2)cc1 (configuration not stated) | -13.8% | -1.2% | . | ? | 5.1% | -24.2%[46.1 µM] | . | -19.0% |
| COc1cccc(NC(=O)CSc2nncn2N)c1 | 2.3% | -9.6% | 14.3% | 29.1% | -3.0% | -2.4% | 6.8% | -2.4% |
| COc1ccc([N+](=O)[O-])cc1NC(=O)CCN1CCN(c2ccccc2OC)CC1 | 8.3% | -7.4% | 4.4% | 0.1% | -4.2% | -2.3% | -4.0% | 0.0% |
| CC1(C(=O)NCc2ccc(F)cc2)Oc2ccccc2NC1=O (configuration not stated) | 2.2% | 2.4% | . | -0.1%[46.1 µM] | . | -25.6% | . | -4.9% |
| Cn1cc(C=O)c(-c2ccc3c(c2)OCCCO3)n1 | -1.1% | 4.5% | . | 0.9%[46.1 µM] | 4.0% | 25.4%[46.1 µM] | . | 34.9%[activator] |
| Cc1ccc(-n2ncc3c2CC(C)(C)CC3NC(=O)Cc2c(C)noc2C)cc1 (configuration not stated) | ? | 26.3% | . | ? | 3.7% | -1.1% | . | ? |
| Cc1cc(NC(=O)CSc2nnc(-c3ccncc3)n2N)ccc1Br | 2.5% | -0.1% | -24.8% | . | -3.0% | -30.3% | -8.4% | -10.3% |
| CCn1c(SC)nnc1-c1nn(-c2ccccc2)ccc1=O | -0.1% | 2.0% | . | 1.9%[46.1 µM] | . | -10.5% | . | 0.7% |
| O=C(Nc1ccc(N2CCN(C(=O)c3ccc(Cl)cc3)CC2)cc1)c1ccc(Br)o1 | 27.2% | -1.1% | ? | ? | -43.4% | ? | -6.4% | ? |
| CC(C)OC(=O)CC1C(=O)NCCN1C(=S)NC(=O)c1ccccc1Cl (configuration not stated) | -3.5% | 0.0% | . | -4.0%[46.1 µM] | 0.2% | -5.3%[46.1 µM] | . | -8.0% |
| O=C(N/N=C/c1cccc(Br)c1)c1ccc(Cn2cc(Br)cn2)o1 | 11.6% | -19.0% | -21.5% | -12.4% | -0.7% | ? | -4.0% | ? |
| Cc1ccc(S(=O)(=O)Nc2ncccn2)cc1 | 2.5% | 1.2% | . | . | 4.4% | . | . | -4.2% |
| O=C1c2ccccc2NC(c2ccc(F)cc2)N1Cc1ccco1 (configuration not stated) | 4.1% | 3.4% | 4.1% | ? | 5.3% | -0.3% | -1.8% | -14.6% |
| Cc1c(NC(=O)c2cc3c(=O)n4ccccc4nc3s2)c(=O)n(-c2ccccc2)n1C | 1.6% | 14.5% | . | . | 1.7% | . | . | -14.1% |
| C/C(=N\NC(=O)Cn1c(-c2ccccn2)nc2ccccc21)c1ccccc1 | -2.8% | -15.4% | -8.3% | ? | 7.4% | -5.8% | -7.6% | -22.4% |
| COc1ccc(C2NC(=O)NC(c3ccccc3)=C2c2nc3ccccc3s2)cc1 (configuration not stated) | -12.6% | -7.2% | ? | ? | -10.2% | ? | -6.4% | ? |
| C/C(NC(=O)c1ccccc1)=C1/C(=O)CC2C1C2(C)C (configuration not stated) | 5.8% | -20.3% | -0.5% | ? | -25.6% | 2.9% | -9.6% | -17.8% |
| COc1ccccc1N1CCN(C(=O)c2oc3ccc(Br)cc3c2C)CC1 | -72.6% | -7.8% | ? | ? | 18.7% | ? | -3.2% | -20.3% |
| FC(F)(F)c1nc2ccccc2nc1N/N=C\c1ccccc1 | 2.9% | -21.6% | -10.5% | 4.0%[46.1 µM] | -7.8% | -1.2% | -9.3% | 16.2% |
| CCN(Cc1ccccc1)Cc1c(C)[nH]c2c(C)c(C)ccc2c1=O | -3.6% | -2.3% | -1.6% | 14.2% | -2.7% | -1.6% | 7.6% | -14.1% |
| COc1cc(C(=O)Nc2c(C(=O)O)[nH]c3ccccc23)cc(OC)c1OC | -1.3% | 14.4% | . | . | 5.6% | . | . | -13.3% |
| CC12CCC(C(=O)Nc3ccc4c(c3)OCCO4)(OC1=O)C2(C)C (configuration not stated) | 13.9% | 14.5% | 3.9% | 13.8% | 6.4% | ? | 2.6% | 0.0% |
| COc1ccc(-c2cc3nc(C)c(CCC(=O)N4CCN(c5ccccc5F)CC4)c(C)n3n2)c(OC)c1 | . | . | 2.8% | 5.7%[46.1 µM] | . | 9.8%[46.1 µM] | 0.2% | ? |
| O=C(NCC1CCCO1)c1ccc2c(c1)N(Cc1ccccc1)C(=O)CS2 (configuration not stated) | -3.1% | -0.1% | . | . | -3.6% | . | . | -18.3% |
| CCCn1cnc2cc(NCc3ccc(OC)cc3OC)ccc21 | . | . | -0.7% | 5.0%[46.1 µM] | . | 4.2%[46.1 µM] | -2.1% | -22.4% |
| Cc1nc2ccn(Cc3ccco3)c(=O)c2cc1C(=O)NCc1ccccc1F | . | . | -8.1% | . | . | ? | -4.7% | -20.6% |
| COc1ccc(-n2nc(C(=O)Nc3ccc4c(c3)OCO4)c3c4ccccc4n(C)c3c2=O)cc1 | 1.8% | 1.7% | -29.6% | 0.0% | ? | -24.9% | 7.3% | -20.8% |
| CN(C(=O)Nc1ccc(Cl)cc1Cl)C1CCCC1 | 1.3% | -21.5% | . | . | 8.7% | . | . | 7.4% |
| CC(OC(=O)CCN=C1NS(=O)(=O)c2ccccc21)C(=O)Nc1ccccc1F (configuration not stated) | 1.4% | 19.1% | . | ? | . | 4.1% | . | -6.0% |
| Nc1nc(SCC(=O)Nc2ccc([N+](=O)[O-])cc2)[nH]c(=O)c1NC(=O)c1ccc(Br)cc1 | -3.0% | 1.3% | . | . | ? | . | . | -0.8% |
| CCOCCCNC(=O)C(c1ccccc1)N(Cc1ccc2c(c1)OCO2)C(=O)c1ccccc1O (configuration not stated) | 1.8% | -9.2% | . | -3.4%[46.1 µM] | . | 1.4% | . | 11.7% |
| Cc1ccc(C(=O)OCC(=O)Nc2ccc3[nH]c(=O)[nH]c3c2)o1 | -4.3% | -10.9% | . | 4.0% | . | 4.3% | . | 0.9% |
| COC(=O)c1ccc(N2CCN(C)CC2)c(NC(=O)c2cccnc2)c1 | -4.1% | 9.8% | . | -2.2%[46.1 µM] | . | -9.8% | . | 17.9% |
| CN1C=CC=C/C1=C(\C#N)c1nc2ccccc2[nH]1 | -10.0% | -6.1% | -6.9% | 7.2% | -6.6% | -17.0% | -3.9% | 1.3% |
| CCOc1ccccc1N1CC(C(=O)Nc2ccccc2CC)CC1=O (configuration not stated) | -0.6% | 6.5% | . | ? | 3.1% | ? | . | -1.0% |
| COCCN(C(=O)Cn1nnc2ccccc21)C(C(=O)NC1CCCC1)c1cccc(OC)c1OC (configuration not stated) | -1.9% | -15.7% | 3.6% | 5.8%&5.8% | -0.4% | 8.3% | 3.3% | 2.1% |
| CCOC(=O)c1noc2ncnc(N3CCN(c4ccccc4OC)CC3)c12 | . | . | 3.6% | . | . | 6.1%[46.1 µM] | -4.5% | -25.1% |
| COc1ccc(-n2cnc3c(cnn3CCC#N)c2=N)cc1 | -4.1% | -4.7% | 2.8% | 8.3% | -0.3% | 20.0% | -1.1% | 3.7% |
| CCN(CC)C(=O)C1CCCN(c2ccc([N+](=O)[O-])cc2)C1 (configuration not stated) | -0.3% | 3.6% | . | 0.4% | -3.2% | -1.0% | . | -22.6% |
| CCc1ccc(C2CC(c3ccc(Cl)cc3)=NNC2=O)cc1 (configuration not stated) | -22.0% | 37.7% | -3.6% | -17.3% | -7.9% | ? | -6.1% | -18.3% |
| COc1cc(C(=O)NCCC(C)C)ccc1OCc1ccc(Cl)cc1Cl | -20.4% | -15.1% | 2.3% | ? | 0.0% | ? | -1.9% | -10.9% |
| COC(=O)CS(=O)(=O)c1cc(Br)cc2c1N(C(C)=O)CC2 | 3.7% | -13.9% | -6.1% | 1.0%[46.1 µM] | -2.3% | -6.9% | -5.7% | -9.7% |
| COc1ccc(C)c2sc(=NC(=O)c3ccccc3)n(C)c12 | -1.1% | -8.7% | 5.0% | . | -0.6% | . | -12.4% | 62.8%[activator] |
| CCOc1cc2[nH]c(=O)n(CCC(=O)NCc3ccc(OC)cc3)c(=O)c2cc1OCC | 0.2% | 1.8%[3.69 µM] | 26.2% | 12.6% | -12.0% | -1.2% | 7.1% | 12.7% |
| COc1ccc(/C=C2\SC(=O)N(CCNC(=O)CN3C(=O)NC4(CCCC4)C3=O)C2=O)cc1 | 2.4% | 1.8% | . | 11.0% | . | -7.1% | . | 23.3% |
| CC(C)NC(=O)c1ccc2c(c1)N(CC(=O)NC1CCCCC1)C(=O)C(C)(C)O2 | -0.1% | -12.0% | . | 0.9%[46.1 µM] | 14.4% | . | . | 7.8% |
| CCOc1ccc(S(=O)(=O)NCCSc2ccccc2)cc1 | -4.0% | -14.5% | -9.1% | -1.4% | -84.3% | -1.1% | -6.2% | 39.5%[activator] |
| Cc1cccc(CN2C(=O)CC(c3ccc(Cl)cc3)c3c(C)nn(-c4nc(C)cc(C)n4)c32)c1 (configuration not stated) | . | . | ? | ? | . | -14.5%[46.1 µM] | -8.4% | 13.4% |
